High-throughput results (PubChem)
MLL AF4-AF9 inh: inhibitors of AF4 peptide binding to AF9, primary screen, biochemical, AlphaScreen, biotin-AF4 peptide, FLAG-AF9, single point; Protein AF-9 (Homo sapiens), P42568; inhibition, % at 10 µM; hit rate 0.47% among 350,000; AID 651704, 2012;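 active = every replicate reaching a set inhibition limit, whatever the replicate mean, cut at about 25% in these data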;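 also: 0% = plate neutral control median and 100% = total signal loss; the record names both 10 and 1 µM as test concentration; the first replicate is given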
Target sequence (P42568 whole entry, looked up): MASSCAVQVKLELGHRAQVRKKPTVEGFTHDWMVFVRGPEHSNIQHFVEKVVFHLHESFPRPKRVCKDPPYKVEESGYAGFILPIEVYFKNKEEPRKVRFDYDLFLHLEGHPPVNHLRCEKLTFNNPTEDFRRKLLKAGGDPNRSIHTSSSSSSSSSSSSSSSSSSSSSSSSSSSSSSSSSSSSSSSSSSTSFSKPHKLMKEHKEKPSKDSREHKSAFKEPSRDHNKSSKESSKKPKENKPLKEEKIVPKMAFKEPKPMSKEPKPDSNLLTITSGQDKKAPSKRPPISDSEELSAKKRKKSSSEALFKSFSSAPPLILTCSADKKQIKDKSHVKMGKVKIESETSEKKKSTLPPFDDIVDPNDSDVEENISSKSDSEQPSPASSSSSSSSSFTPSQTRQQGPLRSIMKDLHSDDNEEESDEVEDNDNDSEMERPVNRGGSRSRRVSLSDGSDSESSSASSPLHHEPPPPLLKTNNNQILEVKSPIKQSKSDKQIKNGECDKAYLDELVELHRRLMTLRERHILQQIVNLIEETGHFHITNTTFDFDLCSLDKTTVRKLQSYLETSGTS
E coli growth: E. coli growth inhibition, primary screen, OD600 | Escherichia coli growth, 23 h; active compounds read low | OD600 absorbance (concentration not given with the values) | AID 1053175, 2014 | hit rate 0.21% among 330,000;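 active = OD600 absorbance below the run mean of sample wells minus 3.6 SD, in any replicate, cut at about 0.56 in these data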;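 also: stock transfer was 300 nL into about 60 µL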
FGF22 binding: binders of human FGF22 protein, primary screen, FGF22 synaptogenesis inhibitor project, biophysical, thermal shift, single point; Fibroblast growth factor 22 (Homo sapiens), Q9HCT0; recombinant FGF22 thermal shift, SYPRO orange fluorescence; percent of sucrose octasulfate shift, DMSO zero; calls only at 9.99 µM; hit rate 1.5% among 340,000; AID 651658, 2012;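 active = melting point raised past a set limit in the mean and every replicate; three in four hits are not shown here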
Target sequence (Q9HCT0 whole entry, looked up): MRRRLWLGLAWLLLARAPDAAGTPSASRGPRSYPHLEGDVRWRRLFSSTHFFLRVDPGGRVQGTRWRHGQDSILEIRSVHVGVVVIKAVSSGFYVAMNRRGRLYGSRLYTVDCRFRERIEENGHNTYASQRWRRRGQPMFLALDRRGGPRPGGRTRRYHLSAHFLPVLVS
HNF4A DNA FP: change in binding of human HNF4A to DNA, primary screen, biochemical, fluorescence polarization, FITC-DNA; 1 h; hit rate 0.3% among 360,000; Hepatocyte nuclear factor 4-alpha (Homo sapiens), P41235; AID 1224865, 2016; activity change, % at 10 µM; in the data active = activity change above about 30%, passing the limit was not always enough;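 also: controls were the assay level and a saturating level of protein; the project sought stronger binding though the title names inhibitors; some compounds called inactive have numbers as strong as hits; positive values seem to mean higher polarization but the record does not say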
Ecoli rRNA inh: reduced GFP signal of wild-type E. coli, primary screen, bacterial rRNA inhibitor project, GFP/RFP fluorescence, OD600, single point; E. coli WT GFP vs humanized-ribosome RFP mutants, 24 h; active compounds read low; DMSO median 0, no signal -100; GFP signal change (wild-type ribosome), % (concentration not given with the values); hit rate 1.6% among 350,000;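 active = significant combined selectivity score with lowered wild-type GFP, culture density cut under 30%, mutant RFP and density less affected; inactive = any of these conditions unmet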; also: one replicate is shown; some compounds called inactive have numbers as strong as hits
ALR H2O2 inh: inhibitors of human ALR sulfhydryl oxidase, primary screen, biochemical, H2O2 detection, HRP-luminol luminescence, single point; FAD-linked sulfhydryl oxidase ALR (Homo sapiens), P55789; purified ALR, DTT oxidation; inhibition, % (concentration not given with the values); hit rate 3.8% among 290,000;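 active = mean and each replicate at 75% or more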;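 also: stock transfer was 7.5 nL into about 7.5 µL; 0% = neutral wells and 100% = wells with inactivated enzyme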
Target sequence (P55789 whole entry, looked up): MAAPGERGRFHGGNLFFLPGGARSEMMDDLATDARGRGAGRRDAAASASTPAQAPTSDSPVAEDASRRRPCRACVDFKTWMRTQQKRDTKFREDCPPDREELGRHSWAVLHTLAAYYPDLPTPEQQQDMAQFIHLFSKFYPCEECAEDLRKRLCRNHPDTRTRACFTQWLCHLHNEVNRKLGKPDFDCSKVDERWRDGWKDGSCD
Vif A3G: inhibitors of Vif binding to APOBEC3G peptide, primary screen, biochemical, TR-FRET, GST-Vif 1-94, biotin-A3G peptide, dose response retest (AID 1117319). hit rate 0.57% among 260,000. Virion infectivity factor (Human immunodeficiency virus type 1 group M subtype B (isolate …. one-dose inhibition, %; IC50 in µM for titrated hits. TR-FRET GST-Vif / biotin-A3G peptide binding; higher % means a stronger effect; test concentration not given here; strong numbers were not always called active;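 active = above the screen mean plus three standard deviations and confirmed in dose response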;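 also: Vif residues 1-94 fused to GST binding biotinylated APOBEC3G peptide 110-148; 0% = full assay without inhibitor and 100% = GST in place of GST-Vif; retest series ran down from 100 µM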
Ecoli rRNA inh OD600: further read-out of Ecoli rRNA inh, marked with its call; OD600 change, %; measured here: OD600 growth;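 optical density of the mix in the first replicate; 0 = DMSO median and -100 = no signal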
Ecoli rRNA inh RFP: recorded beside Ecoli rRNA inh, whose call it bears; RFP signal change, %; measured here: RFP humanized mutant strains;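 first replicate; 0 = DMSO median and -100 = no signal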
* hit, by the source's call; i = inactive; . = no result given.

SMILES	MLL AF4-AF9 inh	E coli growth	FGF22 binding	HNF4A DNA FP	Ecoli rRNA inh	Ecoli rRNA inh OD600	Ecoli rRNA inh RFP	ALR H2O2 inh	Vif A3G
CCOc1nc(-c2ccccc2)ccc1-c1noc(COC)n1	.	0.645	.	1.1	.	.	.	-13.1	8.0%
O=C1CCCN1c1ccc(S(=O)(=O)Oc2ccc(Cl)cc2)cc1[N+](=O)[O-]	.	0.717	.	-0.5	.	.	.	-9.7	-0.5%
COCC(=O)Nc1ccc2c(c1)[C@H]1C[C@H](CC(=O)NC3CCCC3)O[C@@H](CO)[C@H]1O2	-1.5	.	i	.	-4.3	-2.5	-1.0	.	.
O=C(CSCc1ccc(Cl)cc1)N/N=C/c1ccco1	2.1	.	.	-2.5	-6.5	-9.2	6.2	13.9	-16.0%
CCOC(=O)C1(Cc2ccc(Cl)cc2)CCN(C(=O)CCc2cnccn2)CC1	-17.5	0.645	i	1.0	-14.9	-11.2	-0.7	-17.4	.
CC1(C)CC(=O)C2=C(C1)Nc1cc3c(cc1C2c1ccc2c(c1)OCO2)OCO3 (configuration not stated)	-3.3	0.684	i	-0.7	0.8	6.0	-0.6	-23.7	14.2%
CCn1c2ccccc2c2cc(C3C(C#N)=C(C)NC(C)=C3C#N)ccc21	.	0.712	.	2.1	.	.	.	-6.4	-3.8%
S=c1sc2ccccc2n1CCc1ccncc1	-1.7	0.67	i	6.8	-20.1	-27.2	-7.7	-1.9	.
COC(=O)c1sc(NC(=O)c2ccc(C)o2)nc1C	-1.0	0.717	i	-0.1	-2.6	-7.4	-2.3	-12.4	-9.3%
Cc1ccc(NC(=O)C2CCC(=O)N2)cc1C (configuration not stated)	.	0.697	.	2.3	.	.	.	-2.1	14.2%
O=C(Cc1ccncc1)NCC[C@@H]1CC[C@@H](NC(=O)Nc2ccc(Cl)cc2)[C@@H](CO)O1	-0.7	.	i	.	0.7	0.1	2.9	.	.
Nc1c(Cl)cc(S(N)(=O)=O)cc1S(N)(=O)=O	-2.2	.	i	0.8	11.0	9.1	0.3	.	3.7%
COc1ccc(/C=N/NC(=O)CN(C)C(=O)OCc2ccccc2)cc1OC	1.7	.	i	4.2	2.5	-3.1	-1.8	-9.4	.
CCOC(=O)Nc1cc2c(c(N)n1)N=C(c1ccccc1)CN2	-6.9	.	i	22.8	19.3	18.3	-0.2	.	-3.7%
CCCCNC(=O)NS(=O)(=O)c1cnccc1Sc1ccc(Cl)cc1	.	0.782	.	1.5	.	.	.	29.9	-5.1%
CC(C)CCN1CC(C(=O)NCCC2=CCCCC2)CC1=O (configuration not stated)	4.6	0.714	i	-1.1	-18.8	6.7	-0.9	6.4	-2.7%
CN1C(=O)c2cc(NC(=O)C3CCCC3)ccc2OC[C@H]2O[C@@H](CC(=O)Nc3ccccc3)CC[C@H]21	-1.3	.	i	.	0.0	-2.3	-0.2	.	.
COc1ccc(-c2cccc(C(=O)Nc3cccc(C(=O)O)c3)c2)cc1	.	0.681	.	-0.1	.	.	.	36.8	.
COc1ccc(/C(C)=N/NC(=O)Cn2nc([N+](=O)[O-])cc2C)cc1	.	.	i	-0.3	2.4	11.6	-3.1	1.8	.
O=C(C[C@H]1CC[C@H](NC(=O)c2ccncc2)[C@H](CO)O1)NCCc1ccncc1	-1.3	.	i	.	5.7	9.6	-0.6	.	.
Cc1cccc(-c2cc(=O)c(C(=O)O)cn2-c2ccc(F)cc2F)c1	1.3	0.558	i	5.0	-42.4	-70.7	-17.0	-3.8	.
CC(=O)Nc1ccc(OCc2nnc(-c3ccc(Cl)cc3)o2)cc1	-0.1	0.671	i	-0.5	7.4	2.9	-1.0	2.8	14.0%
O=C(Cn1ccc2cc(S(=O)(=O)N3CCCC3)ccc21)NCc1ccccc1	0.7	0.701	i	-3.2	11.1	16.9	20.8	0.6	.
O=C(NCc1cccc(F)c1)c1cccc(OC2CCN(C(=O)C3CC3)CC2)c1	-0.7	0.732	i	-4.0	-5.9	-22.2	3.0	-16.6	.
CCCn1cc(S(=O)(=O)c2ccccc2)c(=O)c2cc(CC)ccc21	-4.4	0.588	i	2.3	-5.6	-6.4	1.6	-16.4	-3.3%
CN(C)NC(=O)c1ccc([N+](=O)[O-])s1	-2.2	0.586	i	3.0	18.9	-0.7	0.1	-39.4	-7.0%
CN1CCN(C(=O)C[C@@H]2CC[C@@H]3[C@@H](COc4ccc(NC(=O)C5CCCC5)cc4C(=O)N3C)O2)CC1	2.9	.	i	.	1.9	1.7	-0.7	.	.
CC(=O)Oc1ccc(-c2cccc(C(=O)N3CCCCC3)c2)cc1	-0.2	0.672	i	-0.1	-20.3	-22.7	-5.0	35.4	.
C[C@H](O)[C@@H]1C(=O)N2CCc3ccc(-c4ccccc4)cc3[C@@H]2C[C@@H]1N(C)C(=O)NC1CCCCC1	-1.0	.	i	-0.9	-20.3	-34.3	5.4	.	4.6%
COC(=O)CC1=C(C(=O)OC)C(c2cccc(OCC(N)=O)c2)C(C#N)=C(N)O1 (configuration not stated)	.	0.683	.	-5.2	.	.	.	10.4	19.7%
O=S(=O)(CCN1CCOCC1)c1ccccc1	-28.5	0.668	i	-1.9	5.8	11.4	-0.6	-10.7	-2.5%
COC(=O)c1c(NC(C)=O)sc(C(=O)Nc2ccccc2C)c1C	-3.3	0.696	i	0.3	12.9	1.6	1.6	-10.1	-51.1%
CCNC(=O)N(C)C[C@H]1N[C@@](C)(C(=O)OC)[C@H]2C(=O)N(C)C(=O)[C@@H]12	-1.8	0.707	i	2.6	5.3	15.9	-1.3	.	0.1%
Cc1cc(NC(=O)c2c(Cl)cccc2Cl)no1	-3.5	0.708	i	-0.7	5.4	1.5	3.8	-1.3	.
CCCCn1cc([N+](=O)[O-])nc1C	1.6	0.651	i	-1.0	6.7	8.5	-0.8	-1.2	1.0%
CCCOc1c(Cl)cc(C(=O)Nc2ccc3c(c2)OCO3)cc1OCC	.	0.735	.	1.0	.	.	.	1.5	4.9%
CCOc1ccc(NS(=O)(=O)c2ccc(C(=O)NC3CCC(O)CC3)cc2)cc1 (configuration not stated)	1.4	0.706	i	2.5	3.6	5.9	1.6	-1.8	6.6%
C/C(=C\c1ccccc1)C(=O)NCCCn1ccnc1	-4.7	0.652	i	-1.6	5.9	-0.4	2.3	-6.4	-4.4%
O=C(CNC(=O)c1ccccc1C(F)(F)F)N/N=C/c1cccs1	0.7	.	i	-2.4	-2.6	6.3	-0.8	-3.9	3.3%
CC(=O)Nc1ccc(S(=O)(=O)N2CCSC2c2ccccc2Cl)cc1 (configuration not stated)	.	0.653	.	-4.5	.	.	.	1.4	-7.2%
Cc1ccc(NC(=O)C(C)Oc2ccccc2)cc1S(=O)(=O)N1CCCCCC1 (configuration not stated)	0.0	0.702	i	1.5	-13.3	-21.1	-10.7	-2.9	-1.6%
CC1CN(C(=O)CSc2nnc(CNC(=O)c3ccc(S(=O)(=O)N(C)C)cc3)o2)CC(C)O1 (configuration not stated)	-0.7	0.685	i	0.5	.	.	.	-8.6	.
COCCNC(=O)CN(C(=O)CCC(=O)Nc1ccccn1)c1ccc(C)cc1	-0.5	0.729	i	0.4	3.2	3.3	-1.9	-5.8	4.1%
COc1cccc(NC(=O)N2CC3(C2)[C@@H](c2ccccc2)[C@H](CO)N3C(C)=O)c1	-1.4	.	i	.	0.8	12.3	2.1	.	.
Cc1ccc(S(=O)(=O)Nc2ccc3c(c2)C(=O)N(C)[C@@H]2CC[C@@H](CC(=O)O)O[C@@H]2CO3)cc1	0.8	.	i	.	3.4	6.6	-1.9	.	.
O=C(COc1ccc(F)cc1F)N1CCCCCCC1	-5.0	0.648	i	2.6	10.2	6.0	0.0	-20.5	.
Cc1c(Cl)cnc(NC(=O)COC(=O)c2ccncc2)c1Cl	1.6	0.64	i	-5.8	5.2	9.3	3.9	.	23.1%
C[C@@H]1CCCCO[C@@H](CN(C)Cc2ccc(Cl)c(Cl)c2)[C@@H](C)CN([C@@H](C)CO)C(=O)c2cc(NC(=O)Nc3ccc(F)cc3)ccc2O1	0.3	.	i	.	3.5	13.5	1.3	.	.

As a working copy, some entries already given:
SMILES	MLL AF4-AF9 inh	E coli growth	FGF22 binding	HNF4A DNA FP	Ecoli rRNA inh	Ecoli rRNA inh OD600	Ecoli rRNA inh RFP	ALR H2O2 inh	Vif A3G
Cc1ccc(S(=O)(=O)Nc2ccc3c(c2)C(=O)N(C)[C@@H]2CC[C@@H](CC(=O)O)O[C@@H]2CO3)cc1	0.8	.	i	.	3.4	6.6	-1.9	.	.
O=C(COc1ccc(F)cc1F)N1CCCCCCC1	-5.0	0.648	i	2.6	10.2	6.0	0.0	-20.5	.
Cc1c(Cl)cnc(NC(=O)COC(=O)c2ccncc2)c1Cl	1.6	0.64	i	-5.8	5.2	9.3	3.9	.	23.1%
C[C@@H]1CCCCO[C@@H](CN(C)Cc2ccc(Cl)c(Cl)c2)[C@@H](C)CN([C@@H](C)CO)C(=O)c2cc(NC(=O)Nc3ccc(F)cc3)ccc2O1	0.3	.	i	.	3.5	13.5	1.3	.	.

Next part.
SMILES	MLL AF4-AF9 inh	E coli growth	FGF22 binding	HNF4A DNA FP	Ecoli rRNA inh	Ecoli rRNA inh OD600	Ecoli rRNA inh RFP	ALR H2O2 inh	Vif A3G
CNc1cc(-c2c(OC)cccc2OC)ncn1	-3.0	.	i	1.8	3.1	10.2	-4.7	.	.
CCCCN(Cc1cccs1)S(=O)(=O)c1csc(C(N)=O)c1	-1.8	0.717	i	4.0	-9.7	-31.4	-5.1	-2.9	.
CS(=O)(=O)N1CCN(CC(=O)NC2CCCCC2)CC1	-1.1	0.688	i	1.2	2.8	-0.1	-1.1	-16.7	.
Cc1nn(-c2ccccc2)c(N)c1Sc1ccc([N+](=O)[O-])cc1	.	0.709	.	-0.1	.	.	.	40.4	.
COCCN(C(=O)c1ccccc1Oc1ccccc1)c1c(N)n(CC(C)C)c(=O)[nH]c1=O	-1.0	0.682	i	-0.9	10.2	15.5	-1.1	.	0.9%
O=C(CN1C(=O)NC(Cc2ccccc2)C1=O)Nc1ccccc1 (configuration not stated)	.	0.651	.	-1.5	.	.	.	-5.2	4.4%
Cc1ccc(C(=O)c2ccc([N+](=O)[O-])cc2)cc1	.	0.67	.	-2.4	.	.	.	-5.5	8.0%
Cc1ccccc1/C=N/NC(=O)Cn1nnc(N)n1	10.6	.	i	0.9	4.9	13.5	4.1	-5.6	4.9%
CN1C(=O)N(C)c2ccc(C=O)c3cccc1c23	-6.0	0.68	.	-36.5	11.2	2.9	2.8	-22.2	.
O=C(OCc1cnc(Cl)s1)c1cccc(Cl)c1Cl	.	0.678	.	3.1	.	.	.	.	-7.0%
O=C(N=C1c2ccccc2CN1c1cccc(Cl)c1)c1cccnc1	-10.7	0.692	i	2.5	7.3	16.6	1.3	-5.3	0.0%
CCNC(=O)Nc1ccc2c(c1)C(=O)N(C)[C@@H]1CC[C@H](CC(=O)Nc3ccccc3)O[C@H]1CO2	-2.2	.	i	.	2.9	1.0	-0.5	.	.
COc1cccc(C(=O)O/N=C(\N)c2ccc([N+](=O)[O-])cc2)c1OC	.	0.705	.	0.3	.	.	.	-5.4	-5.4%

This is a subset (hit frequency here may not be typical).
